Bioassay records deposited in PubChem by several laboratories.
BJeLR viability = BJeLR cell viability loss | BJeLR (HRASV12) viability, CellTiter-Glo ATP luminescence, 48 h; reference of the scale not given here | inhibition, % (concentration not given with the values) | 0.17% of 300,000 active | AID 1554;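 active = replicate mean above 50%; inconclusive = above 50% but judged a plate artefact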;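 also: 50 nL library stock added to about 25 µL; numbers are from one replicate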
Autofluor counter = flagged as autofluorescent in microsphere protease counterscreen | compound autofluorescence counterscreen, microsphere flow cytometry; stronger effect = higher value | fluorescence intensity (concentration not given with the values) | 3.1% of 360,000 active;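 active = at least 3 SD above the mean of all compounds, about 16000 in these data; inconclusive = too few beads counted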;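 also: 100 nL of 1 mM stock went into each well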
Mtb hypoxia rep = Mtb hypoxia fluorescent reporter inhibition; M. tuberculosis hypoxia-regulated fluorescent reporter, fluorescence; fluorescence inhibition, % (test concentration not listed); 0.1% of 300,000 active;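 active = 35 to 45% if threefold the growth effect, above 45% if 1.5-fold the growth effect; inactive = the rest, general growth blockers included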;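 also: wells of about 50 µL received 100 nL stock; 0% = vehicle wells and 100% = reference inhibitor wells; whole bacteria with a GFP reporter of the hypoxia response; strong numbers were not always called active; many hits fall short of the cut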
RN4220 kill = kills Staphylococcus aureus RN4220 | S. aureus RN4220 growth, OD600, 16 h | inhibition, % (concentration not given with the values) | 0.33% of 330,000 active;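 active = z-score of -3 or lower and OD600 up to 0.18 on both plates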;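 also: plate controls were untreated cells for no effect and reference antibiotic for full effect; stock transfer was 100 nL into about 80 µL; one replicate is shown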
ugtP null kill = growth inhibition of S. aureus ugtP deletion strain; S. aureus RN4220 ugtP deletion, OD600 growth, 16 h; some inactives read as strong as hits; 0.54% of 330,000 active; growth inhibition, % (concentration not given with the values); AID 1259309;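 active = z-score under -3 and OD600 up to 0.15 on both plates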;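 also: plate controls were untreated wells for no effect and antibiotic for full effect; wells of about 80 µL received 100 nL stock; the first replicate is given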
PrP UTR inh = suppresses PrP 5' UTR mRNA reporter expression; inhibition, % (no concentration beside the values); AID 488862; 0.35% of 340,000 active; cell-based PrP 5' UTR mRNA reporter, plate reader;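 active = every replicate at 50% or more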;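 also: 0 = median of the neutral control wells; tested in H4 reporter cells; numbers are from one replicate; inactives centre near -14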
Mtb hypoxia rep growth = recorded beside Mtb hypoxia rep, whose call it bears; growth inhibition, %; measured here: M. tuberculosis growth (absorbance);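 0% = vehicle and 100% = reference antibiotic; read after six days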
Numbers without * were called inactive; ? = inconclusive; · = no result given; & = joins results of further samples.

Each structure is followed by: BJeLR viability	Autofluor counter	Mtb hypoxia rep	Mtb hypoxia rep growth	RN4220 kill	ugtP null kill	PrP UTR inh
CSc1nc(-c2ccc(F)cc2)cc(=O)[nH]1
  -12	2149	-6	7	3.4	-3	-11
CCOc1ccc(Cc2nnc(SCC(=O)Nc3ccccc3)n(N)c2=O)cc1
  0	5896	-13	-1	-0.7	4	1
COC(c1ccccc1)c1nnc(CCC(=O)N2CCN(CCOc3ccccc3)CC2)o1 (configuration not stated)
  1	2592	7	-10	3.1	12	2
O=C(Nc1ccc(Br)cc1F)c1ccc2nsnc2c1
  6	3910	0	0	-4.2	-2	-93
COCCn1c(C23CC4CC(CC(C4)C2)C3)n[nH]c1=S
  2	2343	·	·	3.7	0	2
COc1ccc(CNC(=O)CCN2C(=O)[C@@H]3Cc4ccccc4CN3C2=O)cc1
  6	4336	2	-1	3.8	8	-18
Cc1ccc(S(=O)(=O)N2CCN(C(=O)COC(=O)CCOc3ccc(C(C)(C)C)cc3)CC2)cc1
  -8	5497	2	1	3.2	-3	-21
Cc1sc(NC(=O)C2CC(Cl)=CCC2C(=O)O)c(C#N)c1C (configuration not stated)
  7	2575	2	6	4.4	-4	-6
COc1ccc(-c2nc3ccccc3c(=O)n2-c2ccc(OC)cc2)cc1
  -2	3924	-10	-8	3.7	2	-8
CC1CN(c2ccc([N+](=O)[O-])cc2C#N)CC(C)O1 (configuration not stated)
  -3	2190	4	-6	3.8	3	-16
CN(C)c1ccc(C(=O)NN=Cc2cc(Br)cc(Br)c2O)cc1
  ·	·	16	6	14	10	·
Oc1ccccc1Oc1ncc(Br)c(Cl)n1
  -5	3335	-3	-13	3.9	8	-18
Cc1ccc(S(=O)(=O)N2CCOCC2)cc1C(=O)OC1CCOC1=O (configuration not stated)
  ·	·	-4	-5	-0.3	-1	-7
COC(=O)C1=C(c2cccc(C#N)c2)CC2CCC1N2C(=O)NCCOc1ccccc1 (configuration not stated)
  ·	·	7	6	8.9	-3	·
O=C(NCCCn1ccnc1)c1cc(C(=O)C2CCCCC2)c[nH]1
  -4	3168	7	4	6.9	22	-2

Quoted at random: 7 entries already listed, in no set order.
Each structure is followed by: BJeLR viability	Autofluor counter	Mtb hypoxia rep	Mtb hypoxia rep growth	RN4220 kill	ugtP null kill	PrP UTR inh
COC(=O)C1=C(c2cccc(C#N)c2)CC2CCC1N2C(=O)NCCOc1ccccc1 (configuration not stated)
  ·	·	7	6	8.9	-3	·
CCOc1ccc(Cc2nnc(SCC(=O)Nc3ccccc3)n(N)c2=O)cc1
  0	5896	-13	-1	-0.7	4	1
CN(C)c1ccc(C(=O)NN=Cc2cc(Br)cc(Br)c2O)cc1
  ·	·	16	6	14	10	·
COCCn1c(C23CC4CC(CC(C4)C2)C3)n[nH]c1=S
  2	2343	·	·	3.7	0	2
COC(c1ccccc1)c1nnc(CCC(=O)N2CCN(CCOc3ccccc3)CC2)o1 (configuration not stated)
  1	2592	7	-10	3.1	12	2
CC1CN(c2ccc([N+](=O)[O-])cc2C#N)CC(C)O1 (configuration not stated)
  -3	2190	4	-6	3.8	3	-16
CSc1nc(-c2ccc(F)cc2)cc(=O)[nH]1
  -12	2149	-6	7	3.4	-3	-11

(further entries)
Each structure is followed by: BJeLR viability	Autofluor counter	Mtb hypoxia rep	Mtb hypoxia rep growth	RN4220 kill	ugtP null kill	PrP UTR inh
COc1ccc(CCNC(=O)COc2coc(CN3c4ccccc4CC3C)cc2=O)cc1OC (configuration not stated)
  2	5923	13	1	4.6	8	-20
CCCCNC(=O)CNC(=S)N(Cc1ccccc1F)C1CCCCC1
  1	4482	14	0	4.8	8	-14
O=c1[nH]c(SCc2ccccc2F)nc2ccccc12
  -7	3579	5	0	6.9	-6	-26
COCCNC(=O)N1C2CCC1C(C(=O)OC)=C(c1ccc(OC)c(OC)c1)C2 (configuration not stated)
  ·	·	5	1	4.3	-2	·
CCN(CC(=O)Nc1ccc2c(c1)OCCO2)C(=O)c1ccc(C(F)(F)F)cc1
  -4	5716	8	9	3.3	6	-55
C[C@H](NC(=O)c1cc2cc(Cl)ccc2n1C)C(=O)N[C@@H](C(=O)O)c1ccccc1
  9	3560	3	4	2.0	13	-7
CC(C)(C)OC(=O)NC(C(=O)OC(C)(C)C)c1ccc2c(c1)OCO2 (configuration not stated)
  ·	·	9&10	4&4	4.1&6.1	0&1	·
O=C(NNc1ccccn1)C(=O)NNS(=O)(=O)c1ccc(F)cc1
  -4	2067	-8	-8	2.3	4	8
COc1ccc(OC)c(CN2CCN(C(=O)c3ccc(S(=O)(=O)Nc4ccccc4F)cc3)CC2)c1
  ·	3261	3	-6	4.9	0	-23
O=C1NCCCCC1NS(=O)(=O)c1ccc(Cl)cc1 (configuration not stated)
  -6	3561	1	-3	4.1	4	-14
CCOC(=O)c1ccc(N2C(=O)CC(Sc3nc(C)cc(C)n3)C2=O)cc1 (configuration not stated)
  0	3529	1	2	1.8	3	-27
Cc1oc(/N=C/c2ccccc2)c(C#N)c1C
  0	4297	·	·	·	·	-6
COc1ccc(Nc2nnc(Cc3ccncc3)c3ccccc23)c(OC)c1
  6	3803	3	-5	1.6	5	-11
COc1cc(Cl)c(C)cc1NC(=O)c1ccccc1-n1cnnn1
  ·	4406	19	2	8.0	3	-13
CC(=NCCc1ccccc1)c1c(O)[nH]c(=O)[nH]c1=O
  6	5944	12	-4	-1.5	6	-10
O=C(COC(=O)CSc1nnc(-c2ccc(Cl)cc2)o1)Nc1cc(Cl)ccc1Cl
  8	4920	-5	8	4.0	3	-20
O=C(NCCc1cccc(F)c1)/C(=C/c1cccnc1)NC(=O)c1ccccc1
  4	2050	-3	4	2.8	3	-21
COc1cc(/C=N/Nc2ncc(C(F)(F)F)cc2Cl)cc(OC)c1O
  -8	2585	·	·	·	·	0
Cc1c(NCc2nc3ccccc3[nH]2)c(=O)n(-c2ccccc2)n1C
  0	11112	15	9	1.9	5	-14
COc1ccc(-c2cnn3cc(-c4cccc(Cl)c4)cnc23)cc1
  -2	3823	12	4	5.5	4	-17
O=C(/C=C/c1c(F)cccc1Cl)c1ccc(F)cc1
  8	2740	7	6	8.9	-2	-15
CN1C(=O)CC(N2CCN(CC(N)=O)CC2)C1=O (configuration not stated)
  5	3070	-1	0	3.0	-4	-11
O=C(Nc1ccon1)Nc1cccc(Cl)c1Cl
  1	6235	7	11	5.4	10	-18
S=C(NCc1ccco1)Nc1ccc(Br)cc1Cl
  4	4172	1	11	5.1	1	-37
O=C(COC(=O)c1ccc([N+](=O)[O-])o1)NCc1ccccc1
  ·	2786	1	4	2.1	6	-19
CC(=O)Nc1sc(NN=Cc2ccccc2)nc1-c1ccc(C)cc1
  ·	·	13	5	-1.7	2	·
CN(C)/N=C1\CCS(=O)(=O)c2sccc21
  3	4795	·	·	·	·	-22
N#CCC(=O)N/N=C/c1cc([N+](=O)[O-])ccc1N1CCOCC1
  1	4729	·	·	·	·	-23
C/C=C/c1ccc(OCCCCN2CC(C)CC(C)C2)c(OC)c1 (configuration not stated)
  -9	4538	18	13	2.8	-1	1
CCOc1ccc(-c2nc(N)ncc2Oc2ccccc2Br)c(O)c1
  -5	?	9	8	-18	19	14
CN(C)C(=O)Nc1cccc(OC(=O)N(C)C)c1
  -1	4276	5	8	7.4	0	-19
COc1cc(CNCCc2c[nH]c3ccccc23)ccc1OCc1ccc(F)cc1
  -8	2582	6	16	21	-33	-2
Cc1ccc(Cl)c(OCC(=O)OCC(=O)NC2CCCc3ccccc32)c1 (configuration not stated)
  -13	2544	1	4	0.5	8	-11
CCOc1ccc(N2C(=O)c3cccnc3C2Nc2ccc(C)c(C)c2)cc1 (configuration not stated)
  0	9829	3	8	2.4	-5	-27
Cc1cccc(-n2c(C)cc(C(=S)N3CCOCC3)c2C)c1C
  13	4013	9	15	7.8	9	-9
CC1CCN(C(=O)/C(=C\c2ccccc2F)NC(=O)c2ccccc2)CC1
  -3	3056	8	-4	0.4	-3	-9
CC(OC(=O)Cc1c(F)cccc1Cl)C(=O)NCCC1=CCCCC1 (configuration not stated)
  -1	2072	7	3	4.8	-4	3
Cc1ccc2cc(C=NNC(=O)c3ccccc3O)c(Cl)nc2c1
  ·	·	13	7	8.5	-3	·
COC(=O)c1ccc(S(=O)(=O)N2Cc3ccccc3C2)cc1
  -10	3949	5	0	4.4	2	-51
Cc1nn(Cc2ccc(Cl)cc2)c(C)c1NC(=O)CSc1nc2c(c(C(F)(F)F)n1)CCc1ccccc1-2
  0	10913	9	14	1.0	-5	-26
CCOC(=O)c1oc2ccc(/C=N/O)c(Cl)c2c1C
  -1	2117	·	·	·	·	-48
CCOC(=O)c1oc2ccc(CNC(C)(C)C)c(Cl)c2c1C
  -3	9193	4	5	2.8	22	-23
CCOC(=O)c1sc(C)c2c(=O)n(CC)nnc12
  -8	11053	-1	12	1.1	-3	5
N/C(Cc1cccc2ccccc12)=N\O
  -2	3230	·	·	·	·	2
CC(C)Cc1nnc(NC(=O)c2cc3c(s2)CCC3)s1
  11	5276	-21	12	-0.6	-7	-50
CCn1c(SCC(=O)Nc2ccc3c(c2)OCCO3)nnc1C(C)C
  4	5275	7	6	5.7	4	-18
CC(=C\C(=O)O)/C(=C/c1ccco1)C(=O)O
  -6	3616	7	-5	6.6	4	-14
Cc1ccc(S(=O)(=O)Nc2cc(-c3nn(C)c(=O)c4ccccc34)ccc2N2CCOCC2)cc1
  4	22492*	-1	4	-0.6	0	-12
Cc1ccnc(Nc2nc(-c3sc(C)nc3C)cs2)c1
  10	3504	11	4	11	19	-52
N#CC(C#N)=C1c2cc(S(N)(=O)=O)ccc2-c2ccc(S(N)(=O)=O)cc21
  ·	3981	9	4	5.9	-3	-23
CN(Cc1cccs1)C(=O)c1ccc(S(=O)(=O)NCc2ccco2)cc1
  10	4766	-3	-7	4.1	6	-9
CS(=O)(=O)Nc1ccc(S(=O)(=O)N2CCCCCC2)cc1
  -6	5224	4	10	6.5	7	-11
COc1cc2nc(CN3CCN(S(=O)(=O)c4ccc(C)c(C)c4)CC3)[nH]c(=O)c2cc1OC
  -2	3307	-3	-1	0.2	-2	-9
CCNC(=O)/C=C1\NC(C)(C)Cc2c1ccc1ccccc21
  3	6403	0	-3	-0.4	3	-16

Structures above that have a CF3 group, in the order listed:
Each structure is followed by: BJeLR viability	Autofluor counter	Mtb hypoxia rep	Mtb hypoxia rep growth	RN4220 kill	ugtP null kill	PrP UTR inh
CCN(CC(=O)Nc1ccc2c(c1)OCCO2)C(=O)c1ccc(C(F)(F)F)cc1
  -4	5716	8	9	3.3	6	-55
COc1cc(/C=N/Nc2ncc(C(F)(F)F)cc2Cl)cc(OC)c1O
  -8	2585	·	·	·	·	0
Cc1nn(Cc2ccc(Cl)cc2)c(C)c1NC(=O)CSc1nc2c(c(C(F)(F)F)n1)CCc1ccccc1-2
  0	10913	9	14	1.0	-5	-26
